# D2 agonist – activates the human D2 dopamine receptor. P14416. AID 624465. hit rate 0.084% among 360,000. activation, % (test concentration not listed). DiscoveRx PathHunter D2 beta-arrestin, luminescence, 90 min; 100% = 57 uM dopamine signal; in the data active = activation above about 40%; inconclusive = about 15% to 40%; inactive = below about 15%; note: compound concentration not given in the record; the text of the record calls up to 30% inactive
# Target sequence (P14416 whole entry, looked up): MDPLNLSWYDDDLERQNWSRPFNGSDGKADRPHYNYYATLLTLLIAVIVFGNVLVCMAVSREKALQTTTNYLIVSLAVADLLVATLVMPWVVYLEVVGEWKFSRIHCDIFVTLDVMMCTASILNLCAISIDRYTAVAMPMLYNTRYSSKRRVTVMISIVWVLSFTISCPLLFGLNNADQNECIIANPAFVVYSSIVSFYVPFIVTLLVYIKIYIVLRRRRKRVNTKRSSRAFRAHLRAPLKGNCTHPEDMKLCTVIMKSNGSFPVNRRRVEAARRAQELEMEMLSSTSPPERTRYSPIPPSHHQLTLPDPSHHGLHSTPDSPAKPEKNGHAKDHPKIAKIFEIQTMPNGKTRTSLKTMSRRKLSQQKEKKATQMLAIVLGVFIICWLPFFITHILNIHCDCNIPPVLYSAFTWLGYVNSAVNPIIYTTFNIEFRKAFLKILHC
#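 DiscoveRx PathHunter D2 beta-arrestin cells (2,100/well) attached overnight, then compound-stimulated 90 min at 37 C in HBSS/10 mM HEPES/0.1% Tween-20 buffer; beta-galactosidase complementation read by luminescence after 1 h at ambient temperature. Dopamine 57 uM final (EC100) as control.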
# TRPML1 agonist – agonists of human TRPML1 channel. Q9GZU1. TRPML1-expressing cells, Ca2+ dye fluorescence, FDSS; host cell line not named in the record; reference of the full effect not given here. activation, % (concentration not given with the values). hit rate 0.12% among 410,000; in the data active = activation above about 50%; inconclusive = about 30% to 50%; inactive = below about 30%; note: 0% is about no effect; the text of the record puts the active cut at 80%
# Target sequence (Q9GZU1 whole entry, looked up): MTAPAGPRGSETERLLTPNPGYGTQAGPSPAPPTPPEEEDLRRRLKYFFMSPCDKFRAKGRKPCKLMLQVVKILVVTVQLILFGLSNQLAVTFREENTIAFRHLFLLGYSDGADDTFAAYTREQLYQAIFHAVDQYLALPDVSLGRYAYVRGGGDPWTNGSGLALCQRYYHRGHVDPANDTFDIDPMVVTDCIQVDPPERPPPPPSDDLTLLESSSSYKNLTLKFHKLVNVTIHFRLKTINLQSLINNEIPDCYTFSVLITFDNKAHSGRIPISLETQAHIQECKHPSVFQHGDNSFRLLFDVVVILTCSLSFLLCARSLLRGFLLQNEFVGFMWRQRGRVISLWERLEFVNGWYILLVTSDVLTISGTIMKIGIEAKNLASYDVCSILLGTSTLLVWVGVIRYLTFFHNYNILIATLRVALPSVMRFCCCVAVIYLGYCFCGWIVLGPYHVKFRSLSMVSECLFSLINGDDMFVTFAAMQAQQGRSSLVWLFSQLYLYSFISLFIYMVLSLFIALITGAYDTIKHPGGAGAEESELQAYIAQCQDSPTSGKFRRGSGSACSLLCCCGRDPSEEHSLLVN
#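 Agonist activity was taken from a 110 s kinetic Ca2+ dye read on the FDSS after pinning compounds onto TRPML1-DL cells. The cells were seeded at 1,500/well with Tet inducer, incubated about 16 h, then dye-loaded at room temperature.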
# PINK1 expr mod – modulators of PINK1 expression; Potency, µM (series often up to 76.6 µM), for inactives: at the top dose activation (PINK1 increase), most hits filed as activators; PINK1 immunofluorescence, high-content cytometry, 24 h; AID 624263; hit rate 0.2% among 410,000; active = well fitted activation curve with a large enough effect; inconclusive = small, poorly fitted or top-dose-only effect; inactive = flat fitted curve, though single readings scatter; cell line not stated here;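 note: potency is the fitted concentration of half-maximal effect; % of control where 0% means no effect; nearly all actives have a fitted effect of over 65% in size; a mitochondrial uncoupler was the plate control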
#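 Readout is PINK1 immunofluorescence, quantified alongside mitochondrial, cell and nuclear markers by laser-scanning microplate cytometry. Cells from a stable line were exposed to compound titrations (5 concentrations) for 24 hours, with CCCP controls.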
# Six1-Eya2 blk – inhibitors of human Six1/Eya2 interaction; Q15475+O00167; AlphaScreen GST-Six1/His-Eya2 binding, biochemical; hits give low values; control for the full effect not named in the record; activity change, % (test concentration not listed); hit rate 0.56% among 360,000; in the data active = activity change below about -65%; inconclusive = about -30% to -65%; inactive = above about -30%; note: % is set by controls: 0 for no effect and ±100 for the full control effect; compound concentration not given in the record
#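 Six1/Eya2 binding was read as AlphaScreen signal after compounds were pinned into GST-Six1 plus His-tagged Eya2 (5X stock 250/500 nM) in pH 8.0 Tris/NaCl/TCEP buffer, beads added, then incubated 1 h, 37 C, dark.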
# D2 PAM – positive allosteric modulators of human D2 dopamine receptor. P14416. DiscoveRx D2 beta-arrestin cells, luminescence, 90 min; 100% = 57 uM dopamine signal. potentiation, % (no concentration beside the values). AID 624464. hit rate 0.23% among 360,000; active = potentiation of 50% or more; inconclusive = 30% to 50%; inactive = 30% or less;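 note: compound concentration not given in the record; tested on top of an EC20 dose of dopamine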
#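 PathHunter D2 cells, attached overnight at 37 deg C, received compound in DMSO plus dopamine at EC20 (50 nM final) for 90 min at 37 deg C. Beta-arrestin recruitment was read as luminescence after 1 h with detection reagent at ambient temperature.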
# TRPML1 inh – human mucolipin-1 channel inhibition; Q9GZU1; TRPML1-inducible cells, Ca2+ dye fluorescence, FDSS; hits give low values; inhibition of EC80 agonist-evoked calcium signal; activity change, negative = inhibition, % (no concentration beside the values); hit rate 0.02% among 390,000; in the data active means activity change below about -50%; inconclusive means about -30% to -50%; inactive means above about -30%;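 note: stimulus is agonist 54-4 at its EC80 concentration; % is set by controls: 0 for no effect and ±100 for the full control effect; compound concentration not given in the record; the text of the record puts the active cut at -80%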
#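 Calcium fluorescence in TRPML1-DL cells induced overnight with Tet: a 110 s read after compound pin addition, then a 110 s antagonist read after challenge with 54-4 at 4 uM final (EC80).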
# * = called active by the depositor; ? = inconclusive; . = not tested or not shown; & = joins results of further samples; [ ] = another dose, or the depositor's remark. The order is random, and some 1% of all compounds hit somewhere here.
# Below each compound: D2 agonist	TRPML1 agonist	D2 PAM	PINK1 expr mod	Six1-Eya2 blk	TRPML1 inh
CN(c1ccccc1)S(=O)(=O)c1ccc(Cl)c(C(=O)OCC(=O)NCc2ccco2)c1
→ -6.8	0.4	5	-0.1%	-9	18
O=C(CN1CCN(c2nc(-c3ccccc3)cs2)CC1)NNC(=O)c1ccco1
→ -2.3	-0.2	-5	0.1%	-8	5
O=C(Nc1cccnc1)Nc1ccc(Br)cc1Cl
→ 1.1	-0.4	-3	-1.6%[38.3 µM]	2	-6
O=C(CSc1nnc(NC(=O)c2ccc(F)cc2)s1)NC1CC1
→ 1.1	0.2	4	1.1%	2	5
O=C(NCc1ccco1)C1CCN(c2nc3ccccc3n2Cc2ccc(F)cc2)CC1
→ -5.4	-0.4	-5	-0.5%	-3	15
CCOc1ccccc1CN1CCNC(=O)C1CC(=O)NC1CCCCC1 (stereo unspecified)
→ -6.4	-0.1	-7	-0.5%	0	-2
COc1ccc(S(=O)(=O)NCC(c2cccnc2)N2CCN(Cc3ccccc3)CC2)cc1 (stereo unspecified)
→ -3.0	-0.1	0	0.0%	-2	12
Cc1cc(C)c(NC(=O)C2CCCN(S(=O)(=O)c3c(C)noc3C)C2)c(C)c1 (stereo unspecified)
→ .	-0.7	.	1.7%	.	-1
COc1cccc(C(=O)NCCN2C(=O)S/C(=C/c3cccs3)C2=O)c1OC
→ 0.3	0.1	1	-0.1%	-12	-14
CCOc1ccc(N2CC(c3nc4ccccc4n3CCOc3ccccc3OC)CC2=O)cc1 (stereo unspecified)
→ .	0.5	.	-1.6%	.	8
COCC(=O)n1nc(-c2ccccc2)nc1NCc1ccc(N(C)C)cc1
→ 0.5	-0.3	-10	-1.4%	0	5
O=C(Nc1ccccc1)/C(=C\c1ccc2c(c1)OCO2)NC(=O)c1ccco1
→ -0.3	-0.7	-2	2.3%[38.3 µM]	7	3
Cc1ccc(CSCC2Nc3ccc(C(=O)N4CCN(c5ccc(F)cc5)CC4)cc3NC2=O)cc1 (stereo unspecified)
→ -2.5	-0.1	10	0.6%	-2	-2
N=c1ccn(Cc2ccc(Cl)cc2)cc1
→ -2.3	-1.0	2	?	14	-6
O=S1(=O)CCN=C2SC3=C(CCCC3)N21
→ -0.2	-0.2	-16	-4.9%[38.3 µM]	6	-3
CN1C2CCC1CC(NC(=O)CSc1ccc(Cl)cc1)C2 (stereo unspecified)
→ -20	-0.3	-21	-1.0%	-1	20
COc1ccc(-c2ccc(SC)nn2)cc1
→ -1.5	0.0	2	-1.3%	-3	3
CCOC(=O)Cc1c(C)nc2c(-c3ccc(Cl)cc3)cnn2c1C
→ -2.2	0.4	-2	-0.4%	13	1
N#CCSc1nc2c(cc1C#N)CCCC2
→ -3.4	-0.6	-3	0.0%	3	27
Cc1nn(Cc2cccc(C(=O)O)c2)c(C)c1[N+](=O)[O-]
→ -5.6	0.2	1	0.0%	-2	1
CCC1CCCCN1C(=S)Nc1ccc(S(=O)(=O)Nc2ncccn2)cc1 (stereo unspecified)
→ -1.1	0.2	-5	1.6%	3	-9
CCCCn1nnnc1C(c1cc2ccccc2o1)N(C)CCc1ccccc1 (stereo unspecified)
→ .	2.8	.	0.8%	16	.
O=C(CSc1nnc(-c2cccc(Cl)c2)o1)N1CCc2ccccc21
→ .	-0.2	.	0.6%	.	31
O=C(NCc1cccs1)C1CCCN1C(=O)Nc1ccc(F)cc1 (stereo unspecified)
→ 2.2	0.8	-2	2.7%	0	-2
O=C(Nc1cnccn1)c1ccc(Cl)cc1
→ 0.7	0.1	-1	1.0%	8	24
CCc1ccc(C(=O)COC(=O)c2cncc(Br)c2)cc1
→ 5.7	2.2	-8	-0.8%	3	14
Cc1cn2c(=O)cc(COC(=O)C(C)Oc3ccccc3)nc2s1 (stereo unspecified)
→ .	-1.0	.	-1.2%	.	8
Cc1ccc(NC(=O)C2CCCN(c3ncnc4c3nc3n4CCCCC3)C2)cc1F (stereo unspecified)
→ .	1.3	.	0.2%	.	1
CCOC(=O)c1cc(-c2ccccc2)n(CC(=O)Nc2ccc(OC)cc2OC)c1C
→ .	0.5	.	0.9%	.	-5
COc1ccc2cc(C)c3nnc(SCC(=O)Nc4cc(OC)c(OC)cc4C(=O)O)n3c2c1
→ -1.6	0.5	3	-2.3%	12	2

# Further compounds.
# Below each compound: D2 agonist	TRPML1 agonist	D2 PAM	PINK1 expr mod	Six1-Eya2 blk	TRPML1 inh
COc1cc(NC(=S)NC(=O)c2c(OC)cccc2OC)ccc1NC(=O)c1cccs1
→ 0.0	-0.6	-7	5.1%	-7	-1
COc1cc(OC)c(OC)cc1CN1CCSCC1
→ 4.0	0.3	-10	-0.8%	-2	-3
COC(=O)c1c(C(=O)OC)c2cc(C)ccn2c1Cl
→ -2.6	0.3	-15	0.0%	1	-3
CC(=O)N(c1ccc(C)cc1)S(=O)(=O)c1ccc(Cl)cc1
→ 0.4	0.7	-2	1.4%	0	9
CC1CCCC(NC(=O)COC(=O)CCC(=O)c2cccs2)C1C (stereo unspecified)
→ -2.8	-0.4	-8	1.6%	3	-1
Cc1cnc(C(=O)Oc2cccc(Cl)c2Cl)cn1
→ -2.0	0.0	-5	0.3%	-8	0
CCOc1ccc(NC(=O)CN(C)C(=O)c2cc(S(=O)(=O)N3CCCCCC3)ccc2OC)cc1OCC
→ 1.0	0.4	-18	1.7%	4	23
O=C(NCCc1ccccc1F)C1CCC(=O)N(Cc2ccccc2F)C1 (stereo unspecified)
→ -10	0.3	-4	0.0%	0	18
O=C(CCl)N1c2ccccc2Oc2ccc3ccccc3c21
→ ?	9.4	9	?	-27	7
CC(Sc1nnc(CN2CCCC2)n1Cc1ccccc1)C(=O)Nc1ccc(F)c(F)c1F (stereo unspecified)
→ -6.2	2.3	-6	4.2%	8	-20
CC(=O)Nc1ccc2c(c1)nc(C)n2-c1ccccc1
→ -3.8	.	-11	-0.7%	-1	.
O=C(CC(=O)NCc1cccnc1)NCc1cccnc1
→ -1.5	-0.7	-15	0.6%	0	-19
Cc1ccc(SCC(=O)NNC(=O)C2CCCCC2)cc1
→ -0.4	-0.1	-2	-4.3%[38.3 µM]	1	-10
COc1ccccc1CNC(=O)Cc1c(C)c2cc3c(C)coc3c(C)c2oc1=O
→ .	-0.7	.	0.1%	.	-19
O=C(Nc1ccc2c(c1)OCO2)c1cc(C2CCCCN2S(=O)(=O)c2cccs2)on1 (stereo unspecified)
→ 1.9	-0.6	-2	0.4%	-19	-10
CCCCNC(=O)C1(C)CCN1C(=O)c1ccc(C(F)(F)F)nc1C (stereo unspecified)
→ 2.6	-0.3	-7	1.3%	7	.
Nc1nnc(-c2cccc(F)c2)s1
→ 3.9	1.2	-1	-1.6%	-1	-17
CCCCCCCCCCCCCCCC[n+]1ccc(/C=N/O)cc1
→ 0.3	-0.3	-27	-0.7%	-6	12
COc1ccccc1CNC(=O)C(=O)NCCC1CCCCN1S(=O)(=O)c1cccs1 (stereo unspecified)
→ 4.5	0.0	-5	1.6%	13	3
Cc1ccc(Oc2ccc(NC(=O)c3ccco3)cc2)cc1
→ 0.0	1.9	-4	11%[38.3 µM]	4	90
O=S1(=O)N=C(Nc2ccc(O)cc2)c2ccccc21
→ 2.1	1.0	-4	1.9%	3	-1
O=C(NCC(=O)N(CC1CCCO1)C(C(=O)NC1CCCC1)c1ccc(F)cc1)c1ccco1 (stereo unspecified)
→ -2.7	-0.8	9	1.4%	-1	0
CCc1cccc(C)c1Nc1c(-c2ccc(F)cc2)nc2sccn12
→ .	2.4	.	0.9%	.	30
COc1ccc(CC(=O)Nc2ccccc2N2CCCC2)cc1OC
→ 2.2	0.3	-7	1.1%	-3	7
CC(C)(C)C1CCSC2=NCCC[C@]2(c2ccccc2)C1 (stereo partly specified)
→ .	-1.1	.	5.9%	-7	.
CCCCn1c(NS(=O)(=O)c2ccc(C)cc2)c(S(=O)(=O)c2ccccc2)c2nc3ccccc3nc21
→ -9.3	-0.7	-26	1.4%	1	-6
COc1ccc(C(CC(=O)N2CCCCC2)c2c(O)cc(OC)cc2OC)cc1 (stereo unspecified)
→ 1.9	2.4&-0.1	-7	-0.4%	3	-14&-2
CCOc1cccc(C(=O)NNC(=O)CCC(=O)O)c1
→ -2.2	-0.3	-13	1.3%	13	-7
Cc1ccc2nc(SCC(=O)Nc3ccc4c(c3)OCCO4)[nH]c2c1
→ 1.3	0.7	11	-0.9%	3	10
CSc1cccc(CNC(=O)C2CCC(=O)N(CCc3ccccn3)C2)c1 (stereo unspecified)
→ -2.1	1.5	12	?	-1	?

# Sorted by molecular weight (largest number first): some entries from above.
# Below each compound: D2 agonist	TRPML1 agonist	D2 PAM	PINK1 expr mod	Six1-Eya2 blk	TRPML1 inh
COc1ccccc1CNC(=O)C(=O)NCCC1CCCCN1S(=O)(=O)c1cccs1 (stereo unspecified)
→ 4.5	0.0	-5	1.6%	13	3
O=C(NCCc1ccccc1F)C1CCC(=O)N(Cc2ccccc2F)C1 (stereo unspecified)
→ -10	0.3	-4	0.0%	0	18
CCCCCCCCCCCCCCCC[n+]1ccc(/C=N/O)cc1
→ 0.3	-0.3	-27	-0.7%	-6	12
COc1cc(OC)c(OC)cc1CN1CCSCC1
→ 4.0	0.3	-10	-0.8%	-2	-3
CCOc1cccc(C(=O)NNC(=O)CCC(=O)O)c1
→ -2.2	-0.3	-13	1.3%	13	-7
CC(=O)Nc1ccc2c(c1)nc(C)n2-c1ccccc1
→ -3.8	.	-11	-0.7%	-1	.

# Continuation:
# Below each compound: D2 agonist	TRPML1 agonist	D2 PAM	PINK1 expr mod	Six1-Eya2 blk	TRPML1 inh
Cc1ccccc1C(=O)NCC(=O)NC1CC1
→ -0.3	-0.1	1	-0.5%	2	-7
CC(C)(C)c1ccc(C(=O)N2CCCC2c2cccs2)cc1 (stereo unspecified)
→ -3.3	3.3	-10	5.4%	8	14
O=C(CN(c1ccc(Cl)c(C(F)(F)F)c1)S(=O)(=O)c1ccccc1)N1CCOCC1
→ -4.0	0.4	-8	0.2%	-7	28
COC(=O)c1ccsc1NC(=O)CCS(=O)(=O)c1ccccc1
→ -0.8	1.0	-4	1.3%	1	7
Cc1ccc(S(=O)(=O)Nc2nnc(C(C)(C)C)s2)cc1
→ 0.3	.	24	2.4%	-1	.
CSc1ccc(CNC(=O)c2ccc(NC(=O)C3=CSCCO3)cc2)cc1
→ 7.1	0.1	-4	9.5%	16	5
COc1ccc(S(=O)(=O)Nc2cccc(-c3ccc(N4CCOCC4)nn3)c2)cc1F
→ .	-1.1	.	0.9%	.	-9
Cc1c(C(=O)c2ccc([N+](=O)[O-])cc2)c(=O)n(C)c(=O)n1C
→ 6.2	-0.1	12	1.5%	4	-8
CC(=O)c1ccc(NC(=O)CCc2c(C)nc3c(c(C)nn3-c3ccc(C)cc3)c2C)cc1
→ .	2.4	.	-0.6%	.	-9
O=C(NCCc1ccccc1)c1ccc(CSc2nc3ccncc3n2Cc2ccccc2)cc1
→ .	0.3	.	0.4%	.	1
